UCH37 inh = blocks the human deubiquitinase UCH37 | Q9Y5K5 | 0.33% of 330,000 active | AID 588478 | purified proteasome/UCH37, Ub-AMC cleavage fluorescence | inhibition, % (concentration not given with the values);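 active means mean of two replicates above 20%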;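 further: 0% = compound-free wells with enzyme and 100% = wells lacking proteasome; stock transfer was 100 nL into about 20 µL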
Target sequence (Q9Y5K5 whole entry, looked up): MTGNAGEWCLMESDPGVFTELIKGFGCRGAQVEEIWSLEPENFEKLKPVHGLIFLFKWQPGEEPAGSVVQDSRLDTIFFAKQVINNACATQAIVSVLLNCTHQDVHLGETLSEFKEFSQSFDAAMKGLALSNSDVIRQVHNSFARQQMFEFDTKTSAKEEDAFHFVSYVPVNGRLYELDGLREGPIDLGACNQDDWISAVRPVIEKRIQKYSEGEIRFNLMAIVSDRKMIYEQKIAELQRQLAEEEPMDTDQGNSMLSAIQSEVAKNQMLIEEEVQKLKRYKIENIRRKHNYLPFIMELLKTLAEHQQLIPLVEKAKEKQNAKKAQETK
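Material: Human UCH37 enzyme supplied as purified proteasome complex | Schedule: 30 min preincubation with enzyme, 25 min cleavage at room temperature | Detection: AMC fluorescence 355/460 nm | Measure: % inhibition of Ub-AMC cleavage fluorescence | Controls: Wells without proteasome as full block, compound-free enzyme plus substrate as uninhibited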
The depositor's hits bear a star.

no. | mol | UCH37 inh
1 | CCCOc1ccc(-c2c(C(=O)NN=Cc3ccccc3OCC)nnn2-c2nonc2N)cc1 | 0.3
2 | CNC(=O)C(C#N)=c1sc(=CC(=O)OC)c(=O)n1-c1ccccc1 | 4.0
3 | CC(=O)NN=C(C)c1ccc(Br)cc1Br | 2.8
4 | COc1ccc(C2CC(c3ccccc3)=NN2c2ccc(C=NNC(=O)c3ccncc3)cc2)cc1 (stereo not given) | -2.0
5 | COc1cc(C=NNC(=O)c2ccc(NS(=O)(=O)c3cccs3)cc2)cc(OC)c1O | 14
6 | COc1ccc(OC)c(C=NNC(=O)CCCC(=O)Nc2cccc(Br)c2)c1 | -141
7 | CC(/C=C/c1ccccc1)=NNC(=O)C1CC1(C)c1ccccc1 (stereo not given) | 2.4
8 | CCOc1cc(C(=O)NN=C/C(Br)=C/c2ccccc2)cc(OCC)c1OCC | 7.2
9 | COc1cccc(C=NNc2cc(-n3nc(C)cc3-c3ccccc3)ncn2)c1O | 3.2
10 | COc1cccc(C=NNc2cc(Cl)nc(C)n2)c1O | 1.1
11 | COc1ccc(C2CC2C(=NOC(=O)c2cccs2)c2ccccc2)cc1 (stereo not given) | 6.1
12 | CC(=NNS(=O)(=O)c1ccc(C)cc1)c1c(O)c2ccccc2oc1=O | 10
13 | COc1ccc(C=NNC(=O)c2ccc(NC(=O)C3CCCCC3)cc2)cc1O | 0.0
14 | CC(C)NC(=O)C(=NO)c1ccccc1 | 0.9
15 | O=C(Nc1cccc(Cl)c1)ON=Cc1ccncc1 | 5.9
16 | Cc1ccc(CN2CCN(N=Cc3ccc(C(F)(F)F)cc3)CC2)c(C)c1 | 1.6
17 | C=CCn1cc(C=NN2C(=O)C3C4C=CC(C4)C3C2=O)c2ccccc21 (stereo not given) | 2.2
18 | O=C(NN=Cc1coc2ccccc2c1=O)c1ccncc1 | -29
19 | NC(=O)c1cc2cc(Cl)ccc2oc1=NNC(=O)c1cccs1 | 1.1
20 | Oc1ccc(C=NN2CCN(c3ccccn3)CC2)cc1 | 2.3

Three of the compounds above, field by field:
#14 CC(C)NC(=O)C(=NO)c1ccccc1
  UCH37 inh: 0.9
#15 O=C(Nc1cccc(Cl)c1)ON=Cc1ccncc1
  UCH37 inh: 5.9
#16 Cc1ccc(CN2CCN(N=Cc3ccc(C(F)(F)F)cc3)CC2)c(C)c1
  UCH37 inh: 1.6

Continuation:
no. | mol | UCH37 inh
21 | O=C(NN=Cc1ccncc1)C1CC1(c1ccccc1)c1ccccc1 (stereo not given) | 6.4
22 | CC(C)(C)NC(=O)C(=O)NN=Cc1ccc(F)cc1 | 2.2
23 | Cc1ccc(N(CC(=O)NN=Cc2ccc(OC3CSC3)cc2)S(=O)(=O)c2ccccc2)c(C)c1 | 3.1
24 | Cn1ncc(C#N)c1N=CN(Cc1ccccc1)Cc1ccccc1 | 2.5
25 | Clc1ccccc1-c1ccc(C=Nn2cnnc2)o1 | -13
26 | O=C(NN=Cc1ccc(N2CCOCC2)s1)c1ccc(NS(=O)(=O)c2cccs2)cc1 | -5.3
27 | CC(=NNC(=S)Nc1c(C)cccc1C)c1ccc(OC(F)F)cc1 | 1.5
28 | CCOc1cc(C=NNC(=O)C(=O)NC)cc(Br)c1O | 15
29 | COc1cccc(OC)c1C(O)=C(C#N)c1nc2ccccc2[nH]1 | 1.6
30 | O=C(NN=C/C=C/c1ccccc1)C(O)c1ccccc1 (stereo not given) | 5.5
31 | CC(C)(C)c1cc(C(=O)NN=Cc2cc3c(cc2Br)OCO3)n[nH]1 | -2.6
32 | COc1cc(C=NNC(=O)c2ccc3c(c2)OCCO3)cc(Br)c1O | 13
33 | O=[N+]([O-])c1cccc(/C=C/C=NNc2nc(N3CCCCC3)nc(N3CCCCC3)n2)c1 | 7.2
34 | Cc1cccc(C)c1OCC(=O)NN=Cc1cccn1C | 2.6
35 | O=C(NN=Cc1ccc2cccnc2c1)c1ccco1 | 9.4
36 | O=C(NCCN1CCCCC1)c1ccc(C=NO)nc1 | 3.3
37 | Cc1cccc(-c2n[nH]c(=S)n2N=Cc2ccc(C)s2)c1 | 0.7
38 | Cc1cc(C(C)(C)C)ccc1OCC(=O)NN=Cc1c(C)n(C)n(-c2ccccc2)c1=O | 3.5
39 | CC1=CC(=NNc2ccccc2[N+](=O)[O-])CC(C)(C)C1 | 3.0
40 | CC(=NNC(=O)CC#N)c1ccc(Oc2ccccc2)cc1 | -2.2
41 | O=C(NN=Cc1ccc[nH]1)c1ccc(Cl)cc1 | 6.4
42 | O=C(O)c1ccccc1NN=Cc1c(Sc2nnnn2-c2ccccc2)nc2ccccn2c1=O | 10
43 | N#CC(=NNc1cccc2ccccc12)c1nnc2n1CCCCC2 | 3.9
44 | Cc1ccc(C=Nn2c(-c3ccncc3)n[nH]c2=S)s1 | 5.4
45 | COc1ccc(C=NNS(=O)(=O)c2ccc(C)cc2)cc1COc1ccccc1[N+](=O)[O-] | 3.8
46 | Cn1cc(C(=O)NN=C/C(Br)=C\c2ccccc2)ccc1=O | 0.3
47 | CCOc1cc(C=NNc2cccc(C(=O)O)c2)ccc1OC(=O)c1ccccc1 | 1.7
48 | Cc1c(C=NNC(=O)COc2ccccc2[N+](=O)[O-])c2ccccc2n1C | 0.3
49 | CCOc1ccc(-c2c(C(=O)NN=Cc3sccc3C)nnn2-c2nonc2N)cc1 | 1.1
50 | S=c1[nH]nc(C2CCCCC2)n1N=Cc1cccs1 | 6.2
51 | CC(=NNC(=O)c1ccoc1C)c1cccnc1 | 1.8
52 | Cc1sc2nc(C)n(N=CN(C)C)c(=O)c2c1C | -1.8
53 | Cc1nc2ccccc2c(=O)n1N=Cc1ccncc1 | 4.7
54 | CN(C)c1cccc(C(=O)NN=Cc2ccccc2F)c1 | 4.5
55 | Cc1oc(N=Cc2ccccc2)c(C#N)c1C | 1.9
56 | Cc1cc(=O)[nH]c(N=NC(=NNc2ccccc2C)c2ccccc2)n1 | 3.5
57 | CC(=NOCc1ccc(C#N)cc1)c1ccccc1 | -0.3
58 | CC(=NNC(=O)c1nnn(-c2nonc2N)c1-c1ccc2c(c1)OCO2)c1ccccc1 | -1.9
59 | CC(=NO)c1ccc(Oc2cnccn2)cc1 | -0.2
60 | CC(=NNC(=S)Nc1ccc(C)cc1)c1cccc(N)c1 | -17
61 | O=[N+]([O-])c1cc(S(=O)(=O)Nc2ccc(Cl)cc2)ccc1NN=Cc1ccncc1 | 6.2
62 | COc1ccc(S(=O)(=O)N(CC(=O)NN=Cc2ccc(C(=O)O)cc2)Cc2ccccc2)cc1OC | 6.1
63 | CCN1C(=O)/C(=C/c2cccs2)SC1=NS(=O)(=O)c1ccc(C)cc1 | 3.5
64 | CC(=NOCc1nc2ccccc2c(=O)n1N=Cc1cc(C)cc([N+](=O)[O-])c1O)c1ccccc1 | -0.1
65 | Cc1ccccc1NCC(=O)NN=C/C(Br)=C/c1ccccc1 | -1.5
66 | O=[N+]([O-])c1cccc(C=NNc2nc(NCc3ccccc3)nc(N3CCOCC3)n2)c1O | 5.1
67 | COc1ccc(C(C)=NNC(=S)NCc2ccco2)cc1 | 6.0
68 | CC(=NN=C(N)N)c1ccc(Cl)cc1Cl | 4.9
69 | CC(=NNc1ccc(Cl)c(C(=O)O)c1)c1ccc[nH]1 | 12
70 | Cc1ccc(S(=O)(=O)Oc2ccccc2C=NNC(=O)c2nn(C)cc2[N+](=O)[O-])cc1 | 0.4

Some of these compounds in order of their number in UCH37 inh, high to low:
no. | mol | UCH37 inh
67 | COc1ccc(C(C)=NNC(=S)NCc2ccco2)cc1 | 6.0
63 | CCN1C(=O)/C(=C/c2cccs2)SC1=NS(=O)(=O)c1ccc(C)cc1 | 3.5
70 | Cc1ccc(S(=O)(=O)Oc2ccccc2C=NNC(=O)c2nn(C)cc2[N+](=O)[O-])cc1 | 0.4

Returning to the listing, repeating the two entries before the break.
no. | mol | UCH37 inh
69 | CC(=NNc1ccc(Cl)c(C(=O)O)c1)c1ccc[nH]1 | 12
70 | Cc1ccc(S(=O)(=O)Oc2ccccc2C=NNC(=O)c2nn(C)cc2[N+](=O)[O-])cc1 | 0.4
71 | O=C(NN=Cc1cccc([N+](=O)[O-])c1)c1cccc2cc[nH]c12 | 2.6
72 | Cc1occc1C(=O)NN=Cc1cccc2ccccc12 | 1.0
73 | COC(=O)CC(C)=NNc1ccc(S(=O)(=O)N2CCCC2)cc1[N+](=O)[O-] | 3.3
74 | CCOC(=O)C=c1sc(=Cc2sccc2C)c(=O)n1CC(=O)NCc1ccc(C)cc1 | -13
75 | Cc1ccc(-c2nn(-c3ccccc3)cc2C=NNC(=O)c2ccc(Br)o2)cc1 | -5.6
76 | N#CC(=C(O)CN1C(=O)c2ccccc2C1=O)c1nc2ccccc2[nH]1 | 1.2
77 | Cc1ccc(C)c(-c2cc(C(=O)NN=Cc3cccnc3)c3ccccc3n2)c1 | 1.3
78 | COC(=O)C(=Nc1ccccc1)/C(C(=O)C(=O)N(C)c1ccccc1)=C(/O)c1ccc(Cl)cc1 | 11
79 | Cc1n[nH]c(=O)nc1NN=Cc1cccs1 | 7.9
80 | COc1ccccc1/C=C/C=NN1CCN(Cc2ccccc2Cl)CC1 | 2.3

Next section.
# | SMILES | UCH37 inh
81 | CC(=NNC(=O)CNc1ccc(C)cc1)c1ccc(Br)s1 | 7.6
82 | O=C(O)COc1ccccc1C=NNC(=O)CSc1nnc(-c2ccc(Cl)cc2)n1C1CCCCC1 | -1.4
83 | C=C(C)CNC(=S)N=c1scc(C)n1CC | 5.3
84 | COc1ccccc1CON=Cc1cccn1-c1nccc(N(C)C)c1C#N | 2.7
85 | Cn1cccc1C=NNC(=O)C12CC3CC(CC(C3)C1)C2 | 3.6
86 | COc1ccc(C=NNC(=O)c2cc(Br)ccc2O)cc1Cn1cc(Cl)cn1 | -57
87 | C/C(C=NNC(=O)c1cc(-c2ccccc2)nc2ccccc12)=C\c1ccco1 | -7.9
88 | O=S(=O)(N=C(Nc1ccccn1)c1ccccc1)c1ccc(Cl)cc1 | 4.7
89 | CC(/C=C/c1ccccc1)=NNC(=O)CSc1ccccn1 | 6.7
90 | CCOc1ccccc1C=NNc1cc(C)nc2ccc(C)cc12 | -31
91 | CCN(CC)c1ccc(C=NNC(=O)c2nnn(-c3nonc3N)c2-c2ccc(C)cc2)cc1 | -218
92 | COc1cc(C=NNC(=O)C(N)=O)ccc1OCC(=O)N1C(C)CCCC1C (stereo not given) | 14
93 | O=C(NN=Cc1ccccc1[N+](=O)[O-])C(=O)N1CCCC1 | 3.5
94 | CN(N=Cc1cc(Br)cc(Br)c1O)c1cccc(C(F)(F)F)n1 | 5.9
95 | Cc1cc(C)c2nc(N=C(N)NC(=O)Nc3ccccc3)nc(C)c2c1 | 0.9
96 | COc1ccc(S(=O)(=O)NN=Cc2ccc3c(c2)OCO3)c(OC)c1 | 4.3
97 | Cc1cccc(C=NNC(=O)c2cc(Br)ccc2O)n1 | 5.6
98 | N#CCC(=O)NN=Cc1cc(Br)ccc1OCc1cccc2ccccc12 | 2.8
99 | CC(CCN1CCCCc2nc(C)c(C)cc21)=NO[C@H](C)c1cn([C@H](CO)Cc2ccccc2)nn1 | -259
100 | Cc1ccc(-c2c(C(=O)NN=Cc3ccsc3)nnn2-c2nonc2N)cc1 | 3.0

Results in sequence from the entries so far:
Entries 91 to 97 in UCH37 inh: -218, 14, 3.5, 5.9, 0.9, 4.3, 5.6

Further entries:
# | SMILES | UCH37 inh
101 | O=C(NN=C1CCCc2ccccc21)c1cccc([N+](=O)[O-])c1 | 3.6
102 | COc1cc(C=Nn2nnnc2N)ccc1OCc1c(C)no[n+]1[O-] | -4.5
103 | CCOc1cc(C=NNC(=O)CCn2nc(C)cc2C)ccc1O | -2.1
104 | O=C(NN=C1CC2C=CCC12)c1ccc(Br)o1 (stereo not given) | 4.2
105 | O=C(Cc1ccccc1)NN=Cc1ccc(Br)o1 | 4.8
106 | CC(C)NC(=O)CC(=O)NN=Cc1ccccc1F | 4.8
107 | COc1cc(C=Nn2c(C3CCCCC3)n[nH]c2=S)cc(Br)c1O | 0.8
108 | Cc1cc(=O)[nH]c(NN=Cc2ccccc2C(F)(F)F)n1 | -9.0
109 | Cc1snc(S(=O)(=O)C(C#N)=NNc2ccccc2)c1C#N | 7.1
110 | COC(=O)C1=C(N)n2c(sc(=Cc3cccnc3)c2=O)=C(C(=O)OC)C1c1cccnc1 (stereo not given) | 5.0
111 | C=CCN1C(=O)/C(=C/C(=O)OC)SC1=NNC(=O)c1ccccc1 | 4.3
112 | CC(C)C(=O)ON=C(N)c1ccc(Oc2ccc(Cl)cc2)c([N+](=O)[O-])c1 | 4.7
113 | Cc1nc(NN=Cc2ccccn2)sc1C | 10
114 | COc1ccc(CNC(=O)CC(C)=NNC(=O)C(c2ccccc2)c2ccccc2)cc1 | -0.4
115 | COc1ccc(C=NNC(=O)CCN2CCCCC2c2cccnc2)cc1Cn1cc([N+](=O)[O-])cn1 (stereo not given) | 1.8
116 | COc1cccc(C=NNC(=O)CCNc2n[nH]c(=O)[nH]c2=O)c1OC | -0.9
117 | COc1ccccc1OCC(=O)NN=Cc1cccc2cccnc12 | 4.4
118 | CC(=NNC(=S)NC1CCCCC1)c1cccs1 | 4.7
119 | CCOc1ccc(NCC(=O)NN=C/C=C/c2ccccc2)cc1 | 5.4
120 | COc1ccc(C=NNC(=O)c2cccnc2)cc1CN1CCN(c2ccc(F)cc2)CC1 | -0.2
121 | O=C(NN=C1CCCc2c1[nH]c1ccc(Cl)cc21)c1ccncc1 | 4.3
122 | CC(=NNC(=O)CC1N=C(Cc2ccccc2)NNC1=O)c1ccc(C)cc1 (stereo not given) | 3.1
123 | CCOc1ccc(C=NN(C)c2ccccc2)cc1OC | 1.6
124 | S=c1[nH]nc(-c2ccccn2)n1N=Cc1cccc(Cl)c1 | 3.7
125 | COc1cccc(C=Nn2nnnc2N)c1O | 3.7
126 | Cc1ccc(NN=Cc2ccc(N3CCOCC3)cc2)cc1C | 0.2
127 | COC(=O)c1nn(-c2ccccc2)c(Sc2ccc(OC)cc2)c1C=NO | -1.5
128 | CC(=NOCc1ccccc1)c1c(O)cc(C(C)C)n(-c2ccccc2)c1=O | -3.2
129 | O=C(NN=Cc1ccco1)c1ccccc1OCc1ccc(Br)cc1 | 3.6

These rows are one share of the data, so the mix of outcomes need not match the whole.
